Bioassay records as filed in PubChem.
H5N1 antiviral – MDCK cell protection from H5N1 avian flu; cytopathic effect, luminescence, 72 h; active compounds read high; no value below 0 was filed and about half of the inactive calls have no number; reference of the scale not given here; inhibition, % at 50 µM; hit rate 0.07% among 96,000; in the data active = inhibition above about 25%
Numbers without * were called inactive; i = inactive.

| SMILES | H5N1 antiviral |
| --- | --- |
| CCc1nc(CNC(=O)c2cc(OC)c(OC)c(OC)c2)no1 | 1.6 |
| O=C1CC(c2ccco2)c2ccc3ccccc3c2N1 (stereo unspecified) | i |
| CCn1nccc1C(=O)Nc1ccc(Cl)cc1Cl | i |
| O=C(Nc1ccc(Cl)cc1C(=O)NCCN1CCOCC1)c1ccco1 | 0.2 |
| CCOC(=O)c1cccc(NC(=O)C(NS(=O)(=O)c2ccc3c(c2)CCN3C(C)=O)C(C)C)c1 (stereo unspecified) | 1.3 |
| O=C(CCN1C(=O)COc2ccccc21)NCc1cccnc1 | 0.3 |
| CSc1ccc(CCNC(=O)CSc2ccsc2[N+](=O)[O-])cc1 | 0.8 |
| COc1ccc(C(=O)Nn2c(SCC(=O)NCc3ccccc3)nc3ccccc3c2=O)cc1 | i |
| Cc1cc2c(ncn2Cc2ccccc2)c(NS(C)(=O)=O)c1C | 0.6 |
| COc1ccsc1C(=O)N1CCN(Cc2ccc3c(c2)OCO3)CC1 | i |
| CC(NC(=O)OC(C)(C)C)C(=O)Oc1ccc2ccc(=O)oc2c1 (stereo unspecified) | i |
| CCOC(=O)c1sc(Nc2ccc(C)cc2C)nc1C | i |
| Cc1ccc(CNC(=O)c2ccc(Cl)cc2[N+](=O)[O-])cc1 | 0.5 |
| CC1(C)C(=O)C2(CCCCC2)C(=O)OC1c1ccc(O)cc1 (stereo unspecified) | 0.8 |
| Cc1cccc(NC(=O)C2(c3ccccc3)CC2(Cl)Cl)c1 (stereo unspecified) | 5.3 |
| COc1ccc(-c2noc(Cc3ccc(Cl)cc3)n2)cc1OC | i |
| COC(=O)c1sc(=S)n(-c2cc(F)ccc2F)c1N | i |
| Cc1ccc(S(=O)(=O)/N=C(/NC(=S)Nc2cccc(C)c2)c2ccccc2)cc1 | i |
| COc1ccc(-c2cc(-c3ccc(Br)cc3)nc3ncnn23)cc1OC | 0.1 |
| Cn1nc(C(=O)NCc2ccccc2)c2ccccc2c1=O | i |
| CCOc1ccc(Nc2nc(Cc3nnc(SCC(=O)NCc4ccco4)n3CC)cs2)cc1 | i |
| O=C1c2ccccc2CCC1C(O)c1ccccn1 (stereo unspecified) | 0.3 |
| O=C(c1cccc(F)c1)N1CCN(c2cccc(Cl)c2)CC1 | i |
| O=C(O)CC1S/C(=N/N=C/c2ccc(-c3ccccc3[N+](=O)[O-])o2)NC1=O (stereo unspecified) | 0.3 |
| CN(C)S(=O)(=O)c1ccc(S(=O)(=O)N(Cc2ccco2)Cc2ccccc2Cl)cc1 | i |
| COCCOC(=O)c1c(C)oc2ccc(OC(=O)COc3c(F)c(F)c(F)c(F)c3F)cc12 | 1.6 |
| COC(=O)C1CCN(C(=O)CCC2CCCCC2)CC1 | 0.1 |
| COc1ccc(CNC2CCCCC2)cc1 | 0.3 |
| Cc1nc(NCc2ccccc2)[nH]c(=O)c1CCC(C)C | i |
| Cc1ccc2cc(CN(Cc3ccco3)C(=O)c3cccs3)c(=O)[nH]c2c1 | 0.9 |
| COC(=O)c1c(C(=O)OC)c(-c2ccccc2)n2c1CCC2 | 0.2 |
| O=C(NNS(=O)(=O)c1ccc(Cl)cc1)c1cnn(-c2ccccc2)c1-n1cccc1 | 0.1 |
| N=c1n(Cc2ccccc2)c2ccccc2n1CC(O)c1ccco1 (stereo unspecified) | 11.1 |
| Cc1nc(N2CCOCC2)c(C#N)c(C)c1Br | i |
| CCn1c(-c2cccnc2Cl)nc2ccccc21 | 0.1 |
| CN(C)S(=O)(=O)c1ccc(N2CCOCC2)c(C(=O)O)c1 | i |
| Nc1cc2ccccc2oc1=O | 0.8 |
| CCOC(=O)N1CCN(c2c(N3CC=C(c4ccccc4)CC3)c(=O)c2=O)CC1 | 1.0 |
| O=C(NCc1ccncc1)C1CCCN(S(=O)(=O)Cc2ccccc2)C1 (stereo unspecified) | 0.3 |
| CC(C)N(Cc1nc(-c2ccccc2)no1)C(=O)c1ccc(Br)o1 | 0.2 |
| Cc1cccc(-c2onc3ccc(C4(C)OCCO4)cc23)c1 | 0.1 |
| CCOC(=O)CCc1c(C)c2ccc(OCC)c(C)c2oc1=O | 0.2 |
| COC(=O)CCSc1cc([N+](=O)[O-])cc2c1c(C1OCCS1)nn2-c1ccccc1 (stereo unspecified) | 3.9 |
| O=C(NC1CCCc2ccccc21)C1CCN(C(=O)c2sccc2-n2cccc2)CC1 (stereo unspecified) | i |
| CC1(C)CC(=O)c2cnc(NCC3CCCO3)nc2C1 (stereo unspecified) | 0.9 |
| Cc1cc2ncn(C3CC(=O)N(C)C3=O)c2cc1C (stereo unspecified) | 0.1 |
| CCCC(=O)c1c(NC(C)C)cc(C)oc1=O | i |
| COc1ccc(Cl)cc1NS(=O)(=O)c1cc(Cl)ccc1OC | i |
| CC1CCC/C(=N\NC(=O)COc2ccc(Cl)cc2Cl)C1 (stereo unspecified) | 0.3 |
| COc1ccc(S(=O)(=O)N(Cc2ccc(OC)c(OC)c2)Cc2ccco2)cc1 | 1.1 |
| Cc1ccc(C(=O)Oc2ccccc2N2C(=O)C3CCC(C)CC3C2=O)cc1 (stereo unspecified) | 0.1 |
| Cc1ccc(C)c(N(CC(N)=O)S(C)(=O)=O)c1 | i |
| c1ccc(-c2noc(C34CC5CC(CC(C5)C3)C4)n2)nc1 | 1.3 |
| O=C(NCCc1ccccc1)C1CCN(S(=O)(=O)c2ccc(-n3cnnn3)cc2)CC1 | 1.1 |
| CCn1c(COc2ccc(Cl)c(C)c2)nnc1SCC(=O)N1CCCC1 | i |
| O=C(NC1CCCCC1)C1CCCN(c2nnnn2-c2ccccc2)C1 (stereo unspecified) | 0.2 |

Continued, overlapping the part above by three compounds.
| SMILES | H5N1 antiviral |
| --- | --- |
| O=C(NCCc1ccccc1)C1CCN(S(=O)(=O)c2ccc(-n3cnnn3)cc2)CC1 | 1.1 |
| CCn1c(COc2ccc(Cl)c(C)c2)nnc1SCC(=O)N1CCCC1 | i |
| O=C(NC1CCCCC1)C1CCCN(c2nnnn2-c2ccccc2)C1 (stereo unspecified) | 0.2 |
| Cc1cc(C)nc(NC(=O)NS(=O)(=O)Nc2ccc(Br)cn2)n1 | i |
| Cc1ccc(C2=NC(C)(C)NC2=O)cc1 | 0.1 |
| CCN1CCN(c2ncc(C(=O)Nc3ccccc3C(=O)OC)c3ccccc23)CC1 | i |
| COc1ccc(-c2cc(C(F)(F)F)nc(SCC(N)=O)n2)cc1 | 0.5 |
| CC(OC(=O)c1nn(C)c(=O)c2ccccc12)C(=O)NCc1ccc2c(c1)OCO2 (stereo unspecified) | 0.2 |
| CCSc1ncc(C#N)c(=O)[nH]1 | 0.1 |
| O=C(Cn1nc(C(F)F)cc1C(F)F)NNC(=S)Nc1ccc(F)cc1 | i |
| COc1cc(/C=N\Nc2ccc([N+](=O)[O-])cc2)ccc1OCC(=O)Nc1ccc(C)c(C)c1 | i |
| O=C(Nc1ccccc1)C1CC=CCC1C(=O)OCC1CCCO1 (stereo unspecified) | i |
| COc1ccc(CC(C)N2CCN(Cc3ccccc3)CC2)c(OC)c1 (stereo unspecified) | i |
| CCOc1ncccc1C(=O)OCC(=O)Nc1cccc(C(C)=O)c1 | i |
| COc1ccc(-c2ccnc3nc(Sc4ncc(C(F)(F)F)cc4Cl)nn23)cc1 | 0.6 |
| O=C(CN1CCN(S(=O)(=O)c2ccc(Cl)cc2)CC1)NC(=O)NC1CCCCC1 | 5.1 |
| COc1ccccc1Oc1nnnn1-c1ccc(C(N)=O)cc1 | i |
| Cc1cc(C)nc(NC(=O)COc2cc(Cl)cc(Cl)c2)n1 | 0.4 |
| Cc1ccc(C2=CSC3=NCCN23)c(C)c1 | 0.2 |
| CCCn1c(NCc2c[nH]c3ccccc23)nc2ccccc21 | i |
| CCC(OC(=O)c1nsc(Cl)c1Cl)C(=O)NCc1ccco1 (stereo unspecified) | 0.2 |
| CCC(=O)NC(O)C(=O)c1ccc(C)cc1 (stereo unspecified) | 0.8 |
| O=C(O)c1cccc(S(=O)(=O)NCC2CCCO2)c1 (stereo unspecified) | i |
| O=C1CC(c2ccccc2)CC(O)=C1C=NCC1CCCO1 (stereo unspecified) | i |
| Cc1nnsc1C(=O)Nc1ccc(Cl)cc1Cl | i |
| Cc1nc2cc(-c3ccccc3)nn2c(C)c1CCC(=O)N1CCN(c2ccccn2)CC1 | 0.6 |
| CC(C)NC(=O)NC(=O)COC(=O)CCOc1ccccc1 | i |
| COc1ccc(NC(=O)c2c(C(F)(F)F)nn(C)c2SCc2ccccc2Cl)cc1 | 4.7 |
| O=C(NCCOc1ccccc1)c1n[nH]c(=O)c2ccccc12 | 2.2 |
| c1ccc(-c2nnc(CSc3nnc(-c4ccncc4)n3Cc3ccco3)o2)cc1 | 2.9 |
| O=C(CSc1nnnn1C1CC2CCC1C2)Nc1ccnc2ccccc12 (stereo unspecified) | 6.2 |
| Cc1ccc(NC(=O)CSc2nnc(-c3ccncc3)n2N)cc1C | i |
| COc1ccc(C(=O)N2CCC(C(=O)Nc3ccc(OC)c(OC)c3)CC2)cc1 | 1.1 |
| COc1ccc(Cn2nnnc2C(c2cc3cc(C)cc(C)c3[nH]c2=O)N2CCOCC2)cc1 (stereo unspecified) | 1.5 |
| CN(Cc1ccccc1)C(=O)c1cccc(NC(=O)c2ccco2)c1 | 0.2 |
| CCn1c(COc2ccc(C)cc2)nnc1SCc1nc2ccccc2[nH]1 | 1.2 |
| O=C(CSc1nnc2ccccn12)c1ccccc1 | 5.3 |
| N#Cc1c(-c2ccccc2)nc(N2CCCCCC2)[nH]c1=O | 1.2 |
| CCCn1c(N)c(C(=O)CSc2nnc(Cc3ccccc3)o2)c(=O)n(C)c1=O | 0.1 |
| CCOc1ccc(N(CC(=O)OC)S(=O)(=O)c2c(C)noc2C)cc1 | 1.7 |
| O=C(c1cnccn1)N1CCN(c2ccccc2)CC1 | i |
| O=C(N/N=C/c1ccc2c(c1)OCO2)C1COc2ccccc2O1 (stereo unspecified) | 1.3 |
| CC(=O)OC(C)(C)C#CCN1CCCC1 | i |
| O=c1[nH]c(CSc2ncc(-c3ccc(F)cc3)n2Cc2ccco2)nc2ccccc12 | i |
| COc1ccc(C(=O)Nc2nc(C)c(C)s2)cc1OC | i |
| CCOc1ccc(N(CC)C(=O)CCNC(=O)Cn2ccc3ccccc3c2=O)cc1 | 1.5 |
| COc1ccc(C2NC(=O)C(C)S2)cc1 (stereo unspecified) | 0.3 |
| CCOc1ccccc1NC(=O)CCC(=O)Nc1ccc2nc(N3CCN(C)CC3)cc(C)c2c1 | i |
| Cc1cc(-n2c(C)cc(C(=O)CSc3nc4ccccc4c(=O)n3Cc3ccco3)c2C)no1 | i |
| NCCc1nnc(SCc2ccccc2)o1 | 0.8 |
| CC(=O)NCCOc1c(C)cc(S(N)(=O)=O)cc1C | 1.1 |
| Cc1ccc(CNc2ccc3c(c2)ncn3C)cc1 | i |
| O=C(Nc1cc(S(=O)(=O)N2CCOCC2)ccc1O)c1ccco1 | 0.8 |
| COc1ccccc1N1CCN(C(=O)c2cc(-c3ccc(Br)cc3)on2)CC1 | i |
| O=C(Nc1nccs1)C1C2/C=C\CCCCC21 (stereo unspecified) | i |
| O=C(NCc1cccs1)c1cnn2cccnc12 | 0.4 |
| Nc1sc2c(c1C(=O)c1ccccc1)CCCC2 | 0.6 |
| OCC1(CO)COC2(CCCC2)N1 | 0.1 |
| CCCc1nc2c(=O)n(C)c(=O)[nH]c2n1CCC | i |

An excerpt of these results, as labelled records.
mol: O=C(Nc1cc(S(=O)(=O)N2CCOCC2)ccc1O)c1ccco1
  H5N1 antiviral: 0.8

mol: COc1ccccc1N1CCN(C(=O)c2cc(-c3ccc(Br)cc3)on2)CC1
  H5N1 antiviral: i

Following part
| SMILES | H5N1 antiviral |
| --- | --- |
| O=C(NCCc1cccc(F)c1)[C@@H]1CSC2c3ccccc3C(=O)N21 (stereo partly specified) | 0.7 |
| O=C(Oc1c(Cl)cc(Cl)c2ccccc12)N1CCCC1 | 4.3 |
| CS(=O)(=O)N(CC(=O)N1CCCCC1)C1CCCCC1 | i |
| CCOC(=O)C(CCOc1cccc(CC)c1)C(=O)OCC | 0.0 |
| Cc1ccc2cc3cc(C(=O)N4CCN(Cc5ccccc5)CC4)sc3nc2c1 | 0.7 |
| CCOC(=O)c1c(N)sc2c1CCC1C(=O)N(C3CCCCC3)C(=O)C21 (stereo unspecified) | 0.7 |
| Cc1cccc(NC(=S)NC(=O)/C=C/c2ccco2)n1 | 1.8 |
| O=C(Cn1nc(C(F)(F)F)c2c1CCCC2)NCCN1CCOCC1 | i |
| COc1cccc(-c2cc(C(=O)N/N=C/c3ccc(OC)c(COC(C)=O)c3)c3ccccc3n2)c1 | i |
| Cc1cc(C)cc(NC(=O)NCc2nnc(SCc3ccccc3)n2C)c1 | 1.3 |
| CCN(CC)Cc1csc2ccc(Br)cc12 | 10.8 |
| CCCCCCOC(=O)C(C#N)c1nc2ccccc2nc1N1CCCCC1 (stereo unspecified) | i |
| N#Cc1ccc(Oc2ccc(C(N)=O)cc2)cc1C#N | i |
| CS(=O)(=O)N1CCC(C(=O)NCc2ccco2)CC1 | i |
| CCc1nc(N)nc2c1C(=O)CC(C)(C)C2 | i |
| O=C(c1cc2ccccc2oc1=O)N(Cc1ccc2c(c1)OCO2)Cc1ccco1 | 0.4 |
| CCn1c(C)nc2cc(C(=O)NNS(=O)(=O)c3c(C)c(C)cc(C)c3C)ccc21 | i |
| CCOc1ccc(CC(=O)Nc2ccc(S(=O)(=O)Nc3cc(C)on3)cc2)cc1OCC | 1.6 |
| Cc1ccc(-n2c(C)cc(/C([O-])=C(/C(=S)Nc3ccc(F)c(Cl)c3)[n+]3ccccc3)c2C)cc1 | i |
| O=C1C2ON(c3ccc(Cl)cc3)C(c3ccco3)C2C(=O)N1c1ccccc1 (stereo unspecified) | i |
| CC(=O)n1nc(-c2ccccc2)nc1NCc1ccc(F)cc1 | i |
| COc1ccc(CN(C(=O)c2ccc(-c3ccccc3)[nH]2)C(C(=O)NCC2CCCO2)c2ccc(C)o2)cc1 (stereo unspecified) | i |

Rewritten field by field: part of the list above.
CCOc1ccc(CC(=O)Nc2ccc(S(=O)(=O)Nc3cc(C)on3)cc2)cc1OCC
- H5N1 antiviral: 1.6
Cc1ccc(-n2c(C)cc(/C([O-])=C(/C(=S)Nc3ccc(F)c(Cl)c3)[n+]3ccccc3)c2C)cc1
- H5N1 antiviral: i
O=C1C2ON(c3ccc(Cl)cc3)C(c3ccco3)C2C(=O)N1c1ccccc1 (stereo unspecified)
- H5N1 antiviral: i
CC(=O)n1nc(-c2ccccc2)nc1NCc1ccc(F)cc1
- H5N1 antiviral: i

The list is partial (hit frequency here may not be typical).
